Screening data deposited in PubChem by several laboratories.
CSC inhib – cancer stem cell viability inhibitors, primary screen, luminescence | 1.1% of 300,000 active | inhibition, % at 7.5 µM | cancer stem cell-like cells viability;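 active = mean at 75% or more and at least half the replicates too; inconclusive = mean and replicates disagree; tested in HMLE shEcad cells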;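 also: 0% = median of negative and 100% = median of positive control wells; the first replicate is given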
MT1-MMP act inh – blockers of MT1-MMP proenzyme processing, primary screen, HT1080 RFP-PRO-GFP cells, GFP/RFP fluorescence; Matrix metalloproteinase-14 (Homo sapiens), P50281; GFP/RFP ratio fluorescence, overnight; percent of plate control window, DMSO zero; GFP/RFP ratio change, % at 20 µM; 0.061% of 360,000 active;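 active = GFP/RFP ratio change of at least 30% with cell ATP level not reduced by more than half and red fluorescence within 50% of control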; also: strong numbers were not always called active
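Assay system: HT1080 RFP-PRO-GFP cells. Benchmarks: DMSO vehicle wells and RFP-L50D-GFP reporter cell wells. Times: overnight cell settling, then overnight compound exposure, 37 °C, 5% CO2. Compound: 20 µM single dose, 1% DMSO. Read-out basis: GFP/RFP fluorescence ratio.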
PABP polyA inh – PABP poly(A) RNA binding inhibitors, primary screen, biochemical, fluorescence polarization, uHTS | inhibition, % at 35 µM | 1% of 290,000 active | AID 2014, 2009;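 active = 50% or more with normal probe brightness, or confirmed in later tests; inconclusive = above 50% with abnormal brightness, or retests that disagree; inactive = below 50% or failed in later tests; about a fifth of its hits are not listed in these tables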;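 also: calls also rest on retests at 20 µM and on dose response follow-up; controls were probe without protein and protein plus probe with vehicle; some compounds called inactive have numbers as strong as hits; many hits fall short of the cut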
Target sequence (P11940 whole entry, looked up): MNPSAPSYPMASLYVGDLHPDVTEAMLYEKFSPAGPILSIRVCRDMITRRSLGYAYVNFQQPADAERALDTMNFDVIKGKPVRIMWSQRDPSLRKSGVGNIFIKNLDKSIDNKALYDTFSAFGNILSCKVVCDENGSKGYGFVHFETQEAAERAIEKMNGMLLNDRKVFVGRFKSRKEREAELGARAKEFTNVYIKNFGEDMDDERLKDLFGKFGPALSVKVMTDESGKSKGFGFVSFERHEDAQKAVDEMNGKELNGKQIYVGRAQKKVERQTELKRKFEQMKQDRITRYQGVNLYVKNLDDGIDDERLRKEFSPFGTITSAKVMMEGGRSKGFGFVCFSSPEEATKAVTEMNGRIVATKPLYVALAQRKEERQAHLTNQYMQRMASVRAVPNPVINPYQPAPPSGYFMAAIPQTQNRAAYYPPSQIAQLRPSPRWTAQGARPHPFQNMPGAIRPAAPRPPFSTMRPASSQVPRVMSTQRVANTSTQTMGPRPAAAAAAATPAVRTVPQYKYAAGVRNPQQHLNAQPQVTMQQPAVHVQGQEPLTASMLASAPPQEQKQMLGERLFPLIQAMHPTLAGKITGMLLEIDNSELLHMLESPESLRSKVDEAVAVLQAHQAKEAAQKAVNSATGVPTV
eIF4H inh – human eIF4H binding inhibitors, primary screen, translation initiation inhibitor project, biochemical, uHTS, fluorescence polarization | Eukaryotic translation initiation factor 4H (Homo sapiens), Q15056 | eIF4H fluorescence polarization binding assay | inhibition, % at 35 µM | 0.94% of 290,000 active | AID 2012, 2009;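 active = 50% or more with normal probe brightness, or confirmed in later tests; inconclusive = above 50% with abnormal brightness, or retests that disagree; inactive = below 50% or failed in later tests; about a fifth of its hits are not listed in these tables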;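 also: calls also rest on retests at 20 µM and on dose response follow-up; 0% = protein and probe with vehicle and 100% = probe without protein; strong numbers were not always called active; many hits fall short of the cut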
Rce1 inhib – yeast Rce1p protease inhibitors, primary screen, biochemical, fluorescence, cell-free homogeneous; yeast membranes, quenched prenylated peptide cleavage fluorescence; calls only; CAAX prenyl protease 2 (Saccharomyces cerevisiae (strain ATCC 204508 / S288c)), Q03530; 0.27% of 290,000 active;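 active = fall in fluorescence gain of 50% or more versus controls, with final raw signal at or below 3038400; inconclusive = same 50% fall but final raw signal above 3038400; inactive = fall in fluorescence gain under 50%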;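 also: plate controls were neutral control wells for no effect and wells lacking membranes for full effect; tested at 10 µM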
UUG fidelity – modulators of yeast start codon fidelity, primary screen, whole organism, S. cerevisiae, single point, plate reader. S. cerevisiae UUG-firefly luciferase reporter, luminescence/redox ratio. activity score, % at 18.7 µM. 0.13% of 350,000 active. AID 602363, 2012;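 active = replicate mean at a twofold rise or more, about +100% in these data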;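 also: firefly luciferase made from a UUG start codon reports start codon fidelity; reporter light over untreated wells divided by growth signal over untreated wells; some hits fall short of that in this replicate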
HIV Env fusion – inhibitors of HIV-1 Env-driven cell-cell fusion, primary screen, HeLa-JRFL effector, CEM21 target cells, luciferase | 1.1% of 360,000 active | AID 651610, 2012 | inhibition, % at 12.3 µM;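 active = mean replicate inhibition score of at least 50 and every replicate individually at or above 50; inconclusive = only one of the two criteria met; inactive = mean below 50 and not all replicates reaching 50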;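 also: 0% = plate neutral controls and 100% = maraviroc near 300 nM; one replicate is shown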
MT1-MMP act inh RFP – also measured in MT1-MMP act inh; calls as there; RFP signal change, %; measured here: RFP expression control read;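 0 = vehicle wells; hits needed this value within 50% of zero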
* = called active by the depositor; i = inactive; ? = inconclusive; / = not tested or not shown; & = joins results of further samples.

SMILES | CSC inhib | MT1-MMP act inh | MT1-MMP act inh RFP | PABP polyA inh | eIF4H inh | Rce1 inhib | UUG fidelity | HIV Env fusion
C=CCOn1c(C)c(C(C)=O)c2c3nonc3ccc21 | -13.2 | -5.3 | -7.4 | -14.2 | 27.3 | i | / | /
COc1ccc(S(=O)(=O)N2CCN(C)CC2)cc1C | -7.7 | -1.7 | 4.9 | 6.9 | 6.5 | i | -14.2 | 6.2
CC(C(=O)NC(=O)NCc1ccccc1)N1C(=O)c2ccccc2C1=O (stereo not given) | -17.2 | 3.3 | 6.2 | 10.8 | -1.8 | / | -16.0 | /
CCS(=O)(=O)C(=C1NCCO1)S(=O)(=O)CC | -7.9 | 0.4 | 7.7 | -9.0 | 1.8 | i | -19.5 | -98.9
CN(C(=O)Cn1nnc(-c2ccccc2)n1)C1CCS(=O)(=O)C1 (stereo not given) | -3.6 | 1.0 | 0.0 | / | / | i | / | 7.2
CC#CCN1c2ccccc2[C@]23C[C@@H](C(=O)OC)N(C(=O)c4ccco4)C2=NC(C(=O)OC)=C(C(=O)OC)[C@H]13 | 14.0 | -0.1 | 5.1 | 9.1 | -3.2 | i | 0.4 | -36.4
OC(CN1CCN(C(c2ccccc2)c2ccccc2)CC1)c1ccc(Br)cc1 (stereo not given) | / | -5.2 | -3.1 | -3.5 | -7.1 | i | -18.0 | 1.0
O=C1CC(c2ccco2)Cc2nc(N3CCN(Cc4ccc5c(c4)OCO5)CC3)ncc21 (stereo not given) | 14.8 | -0.1 | 3.2 | 8.2 | 6.4 | i | 0.2 | /
Cc1ccnc(NC(=O)c2ccccc2[N+](=O)[O-])c1 | -13.4 | 1.4 | 8.0 | 9.0 | 1.0 | i | -17.9 | -59.0
O=C(Cn1cnc2c(cnn2-c2ccc(F)cc2)c1=O)NCCc1ccccc1 | -12.0 | 4.0 | 2.7 | 11.5 | 6.9 | i | -7.6 | 11.2
O=C(Cn1ncc2c1-c1ccccc1OC2)Nc1ccc(S(=O)(=O)N2CCCCC2)cc1 | -8.6 | 3.0 | -6.9 | -5.6 | 2.5 | / | -2.4 | -12.1
Cc1cccc(CS(=O)(=O)c2ncc(Cl)c(C(=O)Nc3nnc(C(C)C)s3)n2)c1 | 107.3* | -4.4 | -6.3 | / | / | i | -10.1 | /
CN(C)c1ccc(S(=O)(=O)NCC(=O)N2CCN(S(=O)(=O)c3cccc(F)c3)CC2)cc1[N+](=O)[O-] | / | 2.7 | -3.6 | / | / | / | -0.6 | 3.0
Cc1cc(/C=C2\C(=N)N3N=C(c4ccco4)SC3=NC2=O)c(C)n1Cc1ccccc1 | 3.5 | -4.6 | -1.5 | 2.1 | 36.1 | i | / | 10.6
C=CCn1c(O)c(N=NC(=O)c2cccnc2)c2cc(Br)ccc21 | 16.7 | -4.5 | -0.2 | 4.0 | 8.1 | i | -14.3 | 0.7
CCC(C)n1c(-c2cccs2)nc2nc3ccccc3nc21 (stereo not given) | 64.3* | 0.4 | 2.1 | -5.0 | -13.4 | i | -3.6 | /
COc1ccc(CCNC(=O)CSc2nnc3ccc(-c4ccncc4)nn23)cc1 | -9.6 | 5.0 | 1.8 | -7.0 | -5.8 | i | -19.8 | 3.2
O=Cc1cn(-c2ccccc2)nc1-c1cc2c(ccc3ccccc32)oc1=O | -28.9 | -0.9 | 2.0 | 8.1 | -2.5 | / | -7.5 | /
Cc1ccc(C(=O)Nc2cccc(S(=O)(=O)N3CCCCC3)c2)cc1[N+](=O)[O-] | 15.4 | 3.8 | -13.7 | / | / | / | -3.4 | 6.7
Cc1ccc2ccccc2c1C(O)c1ncc(-c2ccccc2Cl)[nH]1 (stereo not given) | / | -2.1 | -5.3 | / | / | / | -8.5 | -6.4
Cn1cc(S(=O)(=O)Cc2ccc(F)cc2)c2ccccc21 | 8.0 | -5.7 | -1.1 | -1.1 | -2.0 | i | -12.2 | /
O=C(Cc1ccc(F)cc1)N(c1ccccc1)C1C=CS(=O)(=O)C1 (stereo not given) | -11.0 | 3.6 | 2.7 | 0.8 | 0.7 | i | -11.2 | /
O=C(COc1ccccc1)Nc1ccc(S(=O)(=O)N2CCOCC2)cc1 | -5.6 | 0.2 | -4.4 | 3.3 | -4.2 | i | -15.0 | /
COc1cc(C(=O)NCCc2ccc3c(c2)OCCO3)ccc1OCC(=O)N1CCOCC1 | 2.3 | -1.5 | 3.3 | -1.1 | 2.5 | i | -9.6 | -12.6
CN1CC(=O)N(C)c2ncn(Cc3ccccc3)c2C1=O | 15.8 | 4.6 | 4.8 | 0.3 | -3.2 | i | -21.4 | /
COc1ccc(S(=O)(=O)Nc2cccc3c2O[C@H](CN(C)C(=O)NC2CCCCC2)[C@@H](C)CN([C@H](C)CO)C3=O)cc1 | / | -1.9 | 0.7 | / | / | / | 5.5&10.6 | -9.9
CCCNC(=O)c1cc(C2CCCCN2C(=O)c2cc(C(C)(C)C)nn2C)on1 (stereo not given) | / | -0.7 | -4.8 | / | / | / | 3.8 | 13.8
COc1ccc(NC(=O)NC(c2ccccc2)c2ccccc2)c(OC)c1 | 4.0 | -2.0 | 0.6 | -6.2 | -5.7 | i | -17.0 | -22.3
CC(C)CNC(=O)C1(C)CCCN1Cc1ccccc1OC(F)F (stereo not given) | / | 1.4 | -1.0 | / | / | / | -19.4 | -6.3
COc1cc(S(=O)(=O)N2CCOCC2)ccc1N | -21.4 | 3.6 | 2.1 | 2.4 | -3.7 | i | / | 3.5
COc1ccccc1-c1nnc(SCC(=O)Nc2ccc(N3CCOCC3)cc2)n1C | -11.0 | 0.0 | 0.2 | / | / | i | / | 11.2
Nc1nonc1-n1nnc(C(=O)N/N=C/c2ccc(OCc3ccccc3F)cc2)c1CN1CCCCC1 | -9.0 | -0.9 | -12.2 | -5.6 | 6.7 | i | -5.8 | 7.3
CC(=O)c1ccc(-n2ccnc2)cc1 | -9.7 | -3.5 | 3.0 | -2.2 | 4.8 | i | / | 3.6
CSc1ncccc1C(=O)Nc1nc2ccc(S(C)(=O)=O)cc2s1 | 3.7 | -5.7 | 1.2 | -3.1 | -0.8 | i | -8.9 | -11.8
CC(=O)Oc1cc(OC(C)=O)c2c(=O)c(-c3ccc4c(c3)OCCCO4)c(C)oc2c1 | -1.3 | -0.3 | 2.0 | -8.4 | 1.5 | i | / | -35.4
Clc1ccc(-c2nnsc2SCc2ccccc2)cc1 | / | 4.7 | -2.9 | -9.2 | 4.7 | i | -12.1 | -16.0

Quoted from the results shown, two compounds:
SMILES | CSC inhib | MT1-MMP act inh | MT1-MMP act inh RFP | PABP polyA inh | eIF4H inh | Rce1 inhib | UUG fidelity | HIV Env fusion
CN1CC(=O)N(C)c2ncn(Cc3ccccc3)c2C1=O | 15.8 | 4.6 | 4.8 | 0.3 | -3.2 | i | -21.4 | /
COc1ccc(S(=O)(=O)Nc2cccc3c2O[C@H](CN(C)C(=O)NC2CCCCC2)[C@@H](C)CN([C@H](C)CO)C3=O)cc1 | / | -1.9 | 0.7 | / | / | / | 5.5&10.6 | -9.9

Next entries.
SMILES | CSC inhib | MT1-MMP act inh | MT1-MMP act inh RFP | PABP polyA inh | eIF4H inh | Rce1 inhib | UUG fidelity | HIV Env fusion
COc1ccc(NC(=O)CC23CC4CC(CC(Br)(C4)C2)C3)c(OC)c1 | -2.2 | 0.3 | 1.2 | 3.9 | -9.2 | i | -6.6 | 7.6
O=C(CC1Nc2cccc3cccc(c23)NC1=O)Nc1ccc(F)cc1 (stereo not given) | 1.0 | 0.9 | 5.0 | -9.5 | ? | i | -5.7 | -3.8
Cc1ccc2c(c1)c1c3n2CCN(C(=O)CCl)C3CCC1 (stereo not given) | -1.4 | -2.3 | -3.3 | 18.4 | 0.6 | i | -29.9 | -48.2
CCOC(=O)c1[nH]c(C)c(C(=O)NCc2ccc(Cl)cc2)c1C | 24.7 | 6.4 | 0.1 | -6.3 | 2.6 | i | -13.2 | /
CC(C)(C)OC(=O)N1CCC(c2c(C(=O)N3CCN(C4CCCCC4)CC3)cnn2-c2ccccc2)CC1 | 6.0 | -0.6 | 4.7 | 7.6 | -5.1 | i | -6.8 | 0.0
C/C(=N\NC(=O)c1nnn(-c2nonc2N)c1CN(C)c1ccccc1)c1ccccc1O | 97.7* | -3.5 | 1.4 | 5.8 | -9.3 | i | -23.5 | 7.7
Nc1c(C(O)(C(F)(F)F)C(F)(F)F)cc(C(O)(C(F)(F)F)C(F)(F)F)c2ccccc12 | 124.3* | -13.6 | -21.0 | 1.1 | -5.1 | i | -10.8 | /
COc1ccccc1C1=NC(c2ccc(F)cc2)N=C1C (stereo not given) | -2.4 | 2.8 | -4.7 | 8.7 | 4.7 | i | / | ?
CCOC(=O)/C(N=O)=C(\O)C1CCN(C(=O)OCC)CC1 | -8.8 | 1.0 | 5.1 | -5.8 | 6.3 | i | -3.4 | -19.8
CN1CCN(c2nc3c(c(=O)[nH]c(=O)n3C)n2Cc2ccccc2)CC1 | -22.4 | -4.0 | 2.0 | -5.5 | 8.8 | i | -4.8 | -242.0
COc1ccccc1C(=O)Oc1cc(N)n(S(=O)(=O)c2ccccc2)n1 | 16.4 | 0.0 | -0.7 | -9.1 | 3.8 | i | -4.9 | -5.1
CCOc1ccc(CN(C(=O)c2oc3cc(C)ccc3c2C)C2CCS(=O)(=O)C2)cc1 (stereo not given) | 42.7 | -0.7 | -10.1 | -5.8 | -7.9 | i | 6.8 | -23.8
CCCCN(CCCC)Cc1ccc(C(=O)NNC(=O)Nc2ccc(Cl)cc2)o1 | 7.9 | -4.1 | 0.8 | 3.5 | 1.0 | i | 9.8 | 15.5
C=CCn1c(NCc2c[nH]c3ccccc23)nc2ccccc21 | -3.0 | 3.9 | -3.6 | -1.9 | -5.5 | / | -27.8 | /
Cc1csc(NC(=O)c2cc3c(C)nn(Cc4ccccc4Cl)c3s2)n1 | 59.4 | -19.3 | -19.4 | 0.5 | -5.2 | i | -17.7 | -4.5
Cc1nc2ccccn2c1/C(O)=C1\C(=O)C(=O)N(CCN(C)C)C1c1cccnc1 (stereo not given) | 5.1 | 4.0 | 8.7 | 21.8 | 21.5 | i | -19.0 | /
O=C(Nc1nnc(C2CC2)s1)C1CCCCN1S(=O)(=O)c1ccccc1 (stereo not given) | -0.5 | 1.8 | 3.4 | 8.9 | 1.9 | i | -9.2 | -6.4
CC(C)CC1C(=O)N(Cc2cn(CC3CCCCC3)nn2)CCS(=O)(=O)N1Cc1ccc(-c2cccc(CO)c2)cc1 (stereo not given) | / | -4.5 | -12.1 | / | / | / | -1.7 | -48.9
CCN1C(=O)c2cccc3c(NC(=O)c4ccc(S(=O)(=O)N(C)C)cc4)ccc1c23 | -4.0 | 7.3 | 8.1 | -0.3 | -2.7 | i | 2.0 | /
CCOc1ccc2nc(N(CCN(C)C)C(=O)/C=C/c3cccs3)sc2c1 | 5.6 | -3.0 | -1.3 | -6.8 | -4.5 | i | 1.8 | /
